Sa RN4220 lethal: S. aureus RN4220 growth inhibition | OD600, 16 h | inhibition, % (test concentration not listed) | actives 0.33% (n = 330,000);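 active = z-score of -3 or lower and OD600 up to 0.18 on both plates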;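 also: plate controls were untreated cells for no effect and reference antibiotic for full effect; stock transfer was 100 nL into about 80 µL; one replicate is shown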
PrP 5UTR inh: inhibition of PrP 5' UTR reporter expression; inhibition, % (no concentration beside the values); cell-based PrP 5' UTR mRNA reporter, plate reader; AID 488862; actives 0.35% (n = 340,000);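 active = every replicate at 50% or more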;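 also: 0 = median of the neutral control wells; tested in H4 reporter cells; numbers are from one replicate; inactives centre near -14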
Mtb hypoxia inh: Mtb hypoxia fluorescent reporter inhibition; M. tuberculosis hypoxia-regulated fluorescent reporter, fluorescence; fluorescence inhibition, % (concentration not given with the values); actives 0.1% (n = 300,000); AID 1159583;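 active = 35 to 45% if threefold the growth effect, above 45% if 1.5-fold the growth effect; inactive = the rest, general growth blockers included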;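 also: wells of about 50 µL received 100 nL stock; 0% = vehicle wells and 100% = reference inhibitor wells; whole bacteria with a GFP reporter of the hypoxia response; strong numbers were not always called active; many hits fall short of the cut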
BJeLR viability: BJeLR cell viability loss; BJeLR (HRASV12) viability, CellTiter-Glo ATP luminescence, 48 h; reference of the scale not given here; inhibition, % (no concentration beside the values); actives 0.17% (n = 300,000);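 active = replicate mean above 50%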;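 also: 50 nL library stock added to about 25 µL; numbers are from one replicate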
Bead autofluor: compound fluorescence in toxin protease inhibitor counterscreen; fluorescence intensity (test concentration not listed); AID 624483; compound autofluorescence counterscreen, microsphere flow cytometry; active compounds read high; actives 3.1% (n = 360,000);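 active = at least 3 SD above the mean of all compounds, about 16000 in these data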;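 also: 100 nL of 1 mM stock went into each well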
Sa ugtP lethal: growth inhibition of S. aureus ugtP deletion strain | S. aureus RN4220 ugtP deletion, OD600 growth, 16 h; some inactives read as strong as hits | growth inhibition, % (test concentration not listed) | actives 0.54% (n = 330,000);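 active = z-score under -3 and OD600 up to 0.15 on both plates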;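 also: plate controls were untreated wells for no effect and antibiotic for full effect; wells of about 80 µL received 100 nL stock; the first replicate is given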
Mtb hypoxia inh growth: recorded beside Mtb hypoxia inh, whose call it bears; growth inhibition, %; measured here: M. tuberculosis growth (absorbance);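 0% = vehicle and 100% = reference antibiotic; read after six days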
* marks the source's active call; other numbers are inactive results; . = not tested or not shown; & = joins results of further samples.

compound	Sa RN4220 lethal	PrP 5UTR inh	Mtb hypoxia inh	Mtb hypoxia inh growth	BJeLR viability	Bead autofluor	Sa ugtP lethal
CC(=O)O[C@H]1CC[C@@]2(C)C(=CC[C@H]3[C@@H]4CC[C@H](C(C)=O)[C@@]4(C)CC[C@@H]32)C1	.	0	.	.	2	5675	.
CC1(C)CC(NC(=O)c2cccc3ccccc23)CC(C)(C)N1	3.4	-23	9	2	-1	3665	2
CCCC(NC(=S)NCC1CCCO1)C12CC3CC(CC(C3)C1)C2 (stereo not drawn)	9.3	-20	-3	5	2	4077	-13
OCCN1CCN(CC(O)COc2ccc(C34CC5CC(CC(C5)C3)C4)cc2)CC1 (stereo not drawn)	.	16	.	.	4	4237	.
CCCCCNS(=O)(=O)c1cc2c3c(c1)CCC(=O)N3CCC2	5.3	-8	5	2	6	5559	0
O=C(/C(=C/O)N=Nc1ccc(Cl)cc1)c1ccncc1	-8.1	-13	.	.	0	3012	-1
c1cc(CN2CCCCC2)cc(OCCCNc2nc3ccccc3s2)c1	0.9	-17	10	30	5	6912	-6
CSc1nnc(C2CCNCC2)n1C	6.2	-13	.	.	3	4192	7
CN(C)c1ccc(C=Nc2cc(-c3ccccc3)nn2-c2ccccc2)cc1	4.2	.	10	3	.	.	5
Cc1ccc2cccc(OCC(=O)Nc3cccc(S(=O)(=O)N4CCCC4)c3)c2n1	0.4	-4	12	5	.	6018	-30
CCOC(=O)C1(Cc2cccc(OC)c2)CCN(Cc2cccc3c2OCO3)CC1	-5.3	-18	2	-5	8	2467	-1
CC1Cc2cc(/C(O)=C3/C(=O)C(=O)N(CCCN4CCOCC4)C3c3ccc(C(C)C)cc3)ccc2O1 (stereo not drawn)	5.5	-13	4	-2	-8	6127	10
Cc1nc2c(c(-c3ccccc3)c1C#N)C(=O)c1ccccc1-2	4.6	-14	.	.	-1	2414	4
COCCCn1c2nc3ccccc3nc2c2c(=O)n(-c3ccccc3OC)c(C)nc21	2.5	.	-1	7	1	.	2
COc1ccc(N2C(=O)[C@@H]3C(c4cccnc4)=NO[C@@H]3C2=O)cc1	3.2	.	4	4	0	.	2
COc1cc(C(=O)NCCc2ncccc2C)ccc1OC1CCN(C(C)=O)CC1	3.0	-13	10	11	1	5019	3
Cc1cccc(C)c1NC(=O)CN(C)C(C)C(=O)Nc1ccccc1-c1ccccc1 (stereo not drawn)	3.4	2	-2	9	-2	3294	1
Cc1cccc(NC(=O)c2cc(S(=O)(=O)N3CCC4(CC3)OCCO4)ccc2F)c1	2.5	-13	2	-10	-3	4445	1
CCn1cc([N+](=O)[O-])c(C(=O)Nc2nc(-c3ccc(C)c(C)c3)c(C)s2)n1	2.7	-13	14	1	-3	7914	4
Cc1ccc2oc(=O)c3cnn(CC(=O)Nc4ccccc4N4CCN(C)CC4)c3c2c1	23	-17	3	5	-7	6690	16

Look-ups from the list.
For Mtb hypoxia inh, CCOC(=O)C1(Cc2cccc(OC)c2)CCN(Cc2cccc3c2OCO3)CC1 shows 2
For Sa RN4220 lethal, c1cc(CN2CCCCC2)cc(OCCCNc2nc3ccccc3s2)c1 shows 0.9
For Mtb hypoxia inh growth, CCCC(NC(=S)NCC1CCCO1)C12CC3CC(CC(C3)C1)C2 (stereo not drawn) shows 5
For Sa ugtP lethal, CCCCCNS(=O)(=O)c1cc2c3c(c1)CCC(=O)N3CCC2 shows 0

More entries follow.
compound	Sa RN4220 lethal	PrP 5UTR inh	Mtb hypoxia inh	Mtb hypoxia inh growth	BJeLR viability	Bead autofluor	Sa ugtP lethal
CCn1c(SCC(=O)OC)nc2sc3c(c2c1=O)CC(C)(C)OC3	3.1	14	-2	0	-4	4331	11
O=S(=O)(NNc1cccc(Cl)n1)c1ccc(Cl)cc1	8.4	-16	7	7	-5	4475	10
CC(C)(C)NC(=O)C(c1ccccc1F)N(Cc1ccco1)C(=O)c1csnn1 (stereo not drawn)	0.2	-27	0	2	-7	16964*	-3
Cc1ncc([N+](=O)[O-])n1CC(=O)Nc1ccc(F)c(Cl)c1	-0.3	-15	2	4	-3	3633	10
CC1CC(C)CN(S(=O)(=O)c2ccc3c(c2)CC(C)N3C(=O)C2CCC2)C1 (stereo not drawn)	-0.2	-5	2	0	4	6221	2
COc1ccc(S(=O)(=O)N2CCN(C(=O)c3cc(C)on3)CC2)cc1	2.8	.	-6	-2	.	6192	0
O=C(Nc1cccc(C(=O)O)c1)/C(=C\c1ccc2c(c1)OCO2)NC(=O)c1ccco1	1.8	-41	17	4	2	4484	8
C=CCn1c(SCC(=O)c2ccc(OC)cc2)nnc1-c1ccc2c(c1)OCO2	1.6	-8	4	7	-6	2209	-4
O=C(Nc1ccc(Cl)cc1)Nc1ccc(Oc2cccnc2)nc1	-8.7	-12	6	5	1	3593	-10
CN(C)CCCOC(=O)Cc1ccc(Cl)cc1	4.0	-30	7	6	6	2701	-1
COc1ccccc1N(CC(=O)NC1CCCC1)C(=O)CNC(=O)c1cccs1	-4.0	1	-14	1	8	3933	6
O=C(NNc1ccccc1[N+](=O)[O-])Nc1ccc(F)cc1F	3.0	-17	5	1	-1	6092	5
N=c1n(Cc2ccccc2)c2ccccc2n1Cc1ccccc1	-4.6	-15	12	8	7	2144	-17
COc1ccc(-n2c(Cn3nc(C(F)(F)F)cc3C)n[nH]c2=S)cc1	5.9	0	16	7	-17	2060	2
COc1cccc(CN(C)C(=O)c2ccccc2SCC(=O)N2CCCC2)c1	4.0	-31	0	5	4	5291	7
CC(Oc1cccnc1[N+](=O)[O-])C(=O)Nc1ccc(F)cc1 (stereo not drawn)	-6.5	-8	-1	1	.	3257	-8
CC(C)OC(=O)CSc1nnc(-c2cnccn2)n1-c1ccccc1	3.1	-12	11	11	-5	2939	7
CC(C)=C1C2CCC1C1C(=O)N(c3nccs3)C(=O)C21 (stereo not drawn)	5.7	0	9	7	-10	2565	3
CCOCCCn1c(=S)[nH]c2cc(C(=O)NC3CCCC(C)C3C)ccc2c1=O (stereo not drawn)	-0.3	-6	2	2	0	5735	-6
O=C(Nc1cc(C(F)(F)F)ccc1N1CCOCC1)c1ccco1	0.7	-17	7	1	1	9365	6
Nc1c(C(=O)NCC2CCCO2)sc2nc3c(c(-c4ccco4)c12)CC/C3=C\c1ccco1 (stereo not drawn)	4.8	-3	10	4	.	1918	-14
Fc1ccc(C(c2nnnn2C2CCCC2)N2CCc3ccccc32)cc1 (stereo not drawn)	10	-4	10	3	-4	17043*	11
Nc1nc(N)c2sc3nc4c(cc3c2n1)CCC4	6.2	-15	.	.	-7	2435	8
COc1cc(C2=NOC(C(=O)Nc3ccc(C(C)=O)cc3)C2)cc(OC)c1OC (stereo not drawn)	1.5	-17	-2	-4	3	15643	2
Cn1c2ccccc2c(=O)c2c(=O)n(-c3ccccc3)c(C3CCCCC3)nc21	3.9	-3	5	2	8	2078	-19
O=S(=O)(NC1CCCCC1)OCC(Cl)(Cl)Cl	5.2	-17	-2	4	-1	3860	1
CN1CCC(=C(c2ccc(Cl)cc2)c2ccccn2)CC1	.	-10	.	.	2	4669	.
CC(C)Cn1c(SCC(=O)N2CCc3ccccc3C2)nc2cc(Cl)ccc2c1=O	2.2	-18	9	0	-14	2494	6
Cc1ccc(SC[C@H](c2ccccc2)N2CCN(CCc3ccccc3)CCC2=O)cc1	.	-19	.	.	0	4608	.
Cc1ccc(S(=O)(=O)N(C)c2ccc(OCc3cccc(C)c3)cc2)cc1	-7.1	-13	13	3	0	5286	23
Cc1ccc(-n2nnnc2SC(C)C(N)=O)c(C)c1 (stereo not drawn)	-1.8	-21	9	4	4	8162	-1
C/C(=N\NC(=O)c1ccccc1)c1cccc(Br)c1	.	-116	.	.	8	4402	.
COc1cc2cc(C(c3nnnn3C(C)(C)C)N3CCC(C)CC3)c(=O)[nH]c2cc1OC (stereo not drawn)	4.3	-21	14	11	7	9904	4
CCCOc1ccccc1C(=O)N(Cc1ccco1)C1CCS(=O)(=O)C1 (stereo not drawn)	1.7	-43	.	.	-4	4670	2
CCN(Cc1ccccc1)C(=O)c1cccc(S(=O)(=O)N2CCN(Cc3ccccc3)CC2)c1	1.0	-11	4	0	0	.	9
Cc1ccc(S(=O)(=O)N(C)C)cc1NC(=O)CN1CCN(Cc2ccccc2)CC1	16	-20	15	12	3	4559	5
O=C(NCCc1ccccn1)/C(=C/c1ccco1)NC(=O)c1ccccc1	7.9	-14	3	-4	1	4393	-64
O=C(Nc1ccccc1)N1CCCN(Cc2c(F)cccc2Cl)CC1	3.5	-10	-3	-5	-9	3273	4
CCOC(=O)/C(C#N)=c1/s/c(=C2\C=Cc3ccccc3N2CC)c(=O)n1CC	.	-2	.	.	3	2621	.
COc1ccccc1C(=O)N1C(CC(=O)Nc2ccccc2C)C(=O)NC2CCCCC21 (stereo not drawn)	5.3	-17	3	3	11	5004	2

Limited to Bead autofluor, BJeLR viability and Sa ugtP lethal, for 2 of the compounds above:
| SMILES | Bead autofluor | BJeLR viability | Sa ugtP lethal |
| --- | --- | --- | --- |
| CC(=O)O[C@H]1CC[C@@]2(C)C(=CC[C@H]3[C@@H]4CC[C@H](C(C)=O)[C@@]4(C)CC[C@@H]32)C1 | 5675 | 2 | . |
| CC1(C)CC(NC(=O)c2cccc3ccccc23)CC(C)(C)N1 | 3665 | -1 | 2 |

The results go on.
compound	Sa RN4220 lethal	PrP 5UTR inh	Mtb hypoxia inh	Mtb hypoxia inh growth	BJeLR viability	Bead autofluor	Sa ugtP lethal
Cc1ccc2cc(NC(=O)c3ccccc3C)ccc2n1	9.8	-74	8	10	13	3970	14
CCOC(=O)C1=C(C)NC(SCC(=O)OC)=C(C#N)C1c1ccc(C(=O)OC)cc1 (stereo not drawn)	0.5&5.1	7&-11	1&14	6&3	9	3643&9989	4&4
Cc1ccc(NC(=O)CN(C)S(=O)(=O)c2cccs2)cc1F	1.9	14	.	.	4	2117	-5
COc1ccc(C(C)=NNC(=O)CNC(=O)c2cccs2)cc1OC	1.6	.	11	9	.	.	2
CC(=O)C1C(=O)CC(C)(O)C(C(C)=O)C1c1ccccc1 (stereo not drawn)	0.3	-17	7	4	-1	3529	1
COc1ccc(C2NC(C(=O)O)Cc3c2[nH]c2ccccc32)cc1OC (stereo not drawn)	3.3	-16	11	11	-4	4673	0
Cc1ccc(O)c(CN(C)Cc2cc(C)ccc2O)c1	-0.2	-68	3	14	.	3520	-10
CC(=O)Nc1ccc(S(=O)(=O)Nc2c(C)n(C)n(-c3ccccc3)c2=O)cc1	4.2	-4	.	.	-1	3804	7
COc1ccc(C2/C(=C(/O)c3ccccc3)C(=O)C(=O)N2C)cc1 (stereo not drawn)	.	-14	.	.	-6	3151	.
COc1cccc(C(=O)Cn2c(N3CCCCC3)nc3c2c(=O)n(C)c(=O)n3C)c1	3.1	-14	1	2	-7	15156	1
O=C(N=C1SC2CS(=O)(=O)CC2N1Cc1ccc(F)cc1)C1CC1 (stereo not drawn)	-1.0	-15	4	8	12	5001	1
CCOc1ccc(N2CC(C(=O)NCCCc3ccccc3)CC2=O)cc1 (stereo not drawn)	-2.2	-1	20	6	.	4984	2
CC(=O)N1c2ccc([N+](=O)[O-])cc2NC(=O)CC1C (stereo not drawn)	2.3	-14	-3	3	-9	2554	-2
Cn1c(NC(=O)c2ccccc2Br)cc(=O)n(C)c1=O	3.6	-24	8	7	2	5742	5
CCCNC(=O)CN(C)S(=O)(=O)c1ccc(F)cc1	4.2	-48	3	15	-2	9856	3
COc1ccc(N2CCN(c3ccc([N+](=O)[O-])nc3)CC2)cc1	0.4	-27	-8	-2	11	4547	-7
Cc1cc(-c2nnc(SCC(=O)Nc3nc(-c4ccc(Cl)cc4)cs3)o2)no1	4.2	-34	12	5	1	4249	3
O=C(Nc1cccc([N+](=O)[O-])c1)c1ccccc1	3.7	-3	8	6	5	5078	6
CN(C)CCCON=C(c1ccccc1)c1ccncc1	3.4	.	8	1	.	.	9
COc1ccc(C=O)cc1Cn1c(=O)n(CCC(=O)NCc2ccco2)c(=O)c2sccc21	1.7	-14	5	1	-5	4586	5
Cc1cc(C)n(C(=O)COc2ccccc2C)n1	5.5	-7	2	11	-1	10291	8
Clc1ccccc1Cn1nnc2c(N3CCOCC3)nc(C3CC3)nc21	3.4	-20	-8	5	-10	2861	8
CN1C(=O)[C@H]2[C@@H](/C=C/c3ccccc3)N3C(=O)CN(CC4CC4)C(=O)[C@@]3(C)[C@H]2C1=O	.	-7	.	.	-6	3049	.

Bioassay records deposited in PubChem by several laboratories.
